Tau ThT inhib – qHTS for Inhibitors of Tau Fibril Formation, Thioflavin T Binding | Potency, µM (highest dose often 57.4 µM), for the others: at the top dose activity, negative = inhibition, hits mostly inhibitors | recombinant tau K18 P301L, heparin-induced fibrillization, ThT fluorescence | Microtubule-associated protein tau (Homo sapiens), P10636 | 270,000 tested, 2.1% active; also: % is scaled to controls: 0 for no effect and ±100 for the full control effect; nearly all actives have a fitted effect of over 55% in size
Target sequence (P10636 561-689 P618L limits assumed): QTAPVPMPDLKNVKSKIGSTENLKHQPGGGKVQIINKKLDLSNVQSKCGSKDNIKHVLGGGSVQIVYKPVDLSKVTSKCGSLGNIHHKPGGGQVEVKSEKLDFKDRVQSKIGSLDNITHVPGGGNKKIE
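ThT emission at 510 nm, taken 1 hr after adding 30 uM dye, quantifies aggregates formed when 20 uM heparin acts on human tau K18 P301L for 6 hr at 37 C.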
ALDH1A1 block – qHTS Assay for Inhibitors of Aldehyde Dehydrogenase 1 (ALDH1A1); 220,000 tested, 7.3% active; Potency, µM (doses to about 75.3 µM), inactives show at the top dose activity, negative = inhibition, most hits filed as inhibitors; Purified ALDH1A1, NADH fluorescence, propionaldehyde substrate; Aldehyde dehydrogenase 1A1 (Homo sapiens), P00352; active = well fitted inhibition curve with a large enough effect, not every such curve was filed as active; inconclusive = small, poorly fitted or top-dose-only effect, or another doubt; inactive = no such curve, though single readings can be large or run the other way;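 also: plate controls were no enzyme wells and a reference inhibitor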
Target sequence (P00352 whole entry, looked up): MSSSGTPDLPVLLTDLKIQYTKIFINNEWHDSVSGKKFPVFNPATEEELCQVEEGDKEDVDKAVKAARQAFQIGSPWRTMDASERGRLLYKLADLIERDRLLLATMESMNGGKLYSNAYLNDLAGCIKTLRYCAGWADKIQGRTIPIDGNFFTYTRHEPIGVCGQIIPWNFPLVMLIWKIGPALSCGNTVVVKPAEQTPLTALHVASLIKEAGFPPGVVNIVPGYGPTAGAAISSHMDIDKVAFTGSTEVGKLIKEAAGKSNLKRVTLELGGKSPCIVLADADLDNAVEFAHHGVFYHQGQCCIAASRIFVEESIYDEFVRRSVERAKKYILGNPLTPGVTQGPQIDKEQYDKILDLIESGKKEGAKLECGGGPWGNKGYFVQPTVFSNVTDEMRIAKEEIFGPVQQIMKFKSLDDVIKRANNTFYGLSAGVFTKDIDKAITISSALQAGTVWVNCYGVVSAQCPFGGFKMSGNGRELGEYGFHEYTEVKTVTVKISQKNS
SMN2 splice enh – qHTS Assay for Enhancers of SMN2 Splice Variant Expression | Potency, µM (top dose mostly 46.1 µM), inactives show at the top dose activity change, positive = activation, hits mostly activators | 210,000 tested, 2.8% active | HEK293 SMN2-luciferase splicing reporter, luminescence, 30-36 h; also: % of control where 0% means no effect; nearly all actives have a fitted effect of over 55% in size
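qHTS luciferase splicing reporter: luminescence rises when SMN2 exon 7 is included in transfected HEK293 cells. Compound exposure lasted 30-36 h at 37C, with 4.5 mM final sodium butyrate as control, followed by a ONE-Glo read.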
Tau fibril FP – qHTS for Inhibitors of Tau Fibril Formation, Fluorescence Polarization | K18 P301L tau heparin fibrillization, Alexa594 FP, 6 h | Microtubule-associated protein tau (Homo sapiens), P10636 | Potency, µM (titrated, usually from 57.7 µM), for inactives: at the top dose activity, negative = inhibition, hits mostly inhibitors | 280,000 tested, 0.39% active | AID 1468, 2008; also: % is scaled to controls: 0 for no effect and ±100 for the full control effect; nearly all actives have a fitted effect of over 55% in size
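Heparin (20 uM) drove fibril formation of recombinant tau K18 P301L, 15 uM unlabeled with 0.24 uM Alexa 594 label, for 6 hr at 37 C in 100 mM sodium acetate pH 7. Fluorescence polarization (555/632 nm) read 1 hr after 30 uM ThT.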
HTT cytoprotect – qHTS Multiplex Assay to Identify Dual Action Probes in a Cell Model of Huntington: Cytoprotection (ATP). PC12 HTT-Q103 induced, cytoprotection, ATP luminescence, 40 h. Potency, µM (titrated, usually from 56.4 µM), without a hit: cytoprotection (ATP increase), actives largely listed as activators. 230,000 tested, 0.14% active. AID 1471, 2008;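 also: % of control where 0% means no effect; nearly all actives have a fitted effect of over 45% in size; toxic huntingtin expression switched on by the ecdysone agonist tebufenozide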
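Compounds were screened for protection of PC12 cells against cell death after tebufenozide induction (100 nM final) of mutant Huntingtin exon 1 (Q103) fused to GFP.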
Tau fluor cs – Counterscreen qHTS for Inhibitors of Tau Fibril Formation, Fluorescence Polarization; tau K18 P301L Alexa594 fluorescence, heparin fibrillization; Potency, µM (highest dose often 57.7 µM), without a hit: at the top dose activity change, negative = decrease; 280,000 tested, 0.93% active; AID 1463, 2008; also: % is scaled to controls: 0 for no effect and ±100 for the full control effect; nearly all actives have a fitted effect of over 55% in size
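Human tau K18 P301L (15 uM unlabeled, 0.24 uM Alexa 594-labeled) in 100 mM sodium acetate pH 7 with 20 uM heparin, 6 hr at 37 C. ThT 30 uM added, 1 hr ambient; Alexa 594 FP and total fluorescence read at 555/632 nm.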
HTT aggregate – qHTS Multiplex Assay to Identify Dual Action Probes in a Cell Model of Huntington: Aggregate Formation (GFP). PC12 HttQ103-GFP aggregates, Acumen cytometry, 40 h. Potency, µM (series often up to 46.1 µM), for inactives: at the highest dose activity change, negative = inhibition, most hits filed as inhibitors. 220,000 tested, 1.1% active; also: % is scaled to controls: 0 for no effect and ±100 for the full control effect; nearly all actives have a fitted effect of over 60% in size
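PC12/HTTQ103-GFP, ecdysone-inducible; teb 100 nM; cpd qHTS titration; GFP aggregates read on laser cytometer, Ex 488/Em 500-530 nm.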
The depositor's hits bear a star; u = inconclusive; x = not tested or not shown; [ ] = remark or other dose. Unless noted, calls follow the shape of the dose curve; as a rule, active = well fitted curve in the direction sought with a large enough effect; inconclusive = small, poorly fitted or top-dose-only effect, or another doubt; inactive = no such curve, though single readings can be large; an effect the other way counts as inactive or inconclusive. Potency is read from the fitted curve at half-maximal effect. Not all compounds are listed; the hit share may differ from the screen's.

Start of the listing, in advance (3 entries):
smiles	Tau ThT inhib	ALDH1A1 block	SMN2 splice enh	Tau fibril FP	HTT cytoprotect	Tau fluor cs	HTT aggregate
COc1ccccc1N1CCN(CC(=O)Nc2ccc3c(c2)OCCO3)CC1	-1%	22µM*	3%	6%	6%	-7%	-11%
COC(=O)c1ccc(CSc2ccc3nnc(-c4cccnc4)n3n2)o1	-3%	-3%	2%	-3%	-7%[10 µM]	2%	-10%
O=C(Nc1cccnc1)c1sc(Nc2ccccc2F)nc1-c1ccccc1	5%	u	x	-12%	-38%[inhibitor]	-21%	6%

Results, from the first entry:
smiles	Tau ThT inhib	ALDH1A1 block	SMN2 splice enh	Tau fibril FP	HTT cytoprotect	Tau fluor cs	HTT aggregate
COc1ccccc1N1CCN(CC(=O)Nc2ccc3c(c2)OCCO3)CC1	-1%	22µM*	3%	6%	6%	-7%	-11%
COC(=O)c1ccc(CSc2ccc3nnc(-c4cccnc4)n3n2)o1	-3%	-3%	2%	-3%	-7%[10 µM]	2%	-10%
O=C(Nc1cccnc1)c1sc(Nc2ccccc2F)nc1-c1ccccc1	5%	u	x	-12%	-38%[inhibitor]	-21%	6%
CC(C)C(=O)Nc1ccc(-c2ccc3nncn3n2)cc1	u	1%	11%	9%	-65%[inhibitor]	-9%	-2%
C/C(=N\Nc1ccc(Cl)c(C(=O)O)c1)c1ccc2c(c1)OCO2	u	u	16µM*	5%	-26%[10 µM]	-5%	23%
COc1ccc(C2CC(c3ccc4ccccc4c3)=NN2C(=O)CNC2CCCCC2)cc1 (configuration not stated)	u	-8%	-23%	-1%	-20%	-3%	-6%
COc1ccccc1Oc1ccc(N/C=C/C(=O)c2ccc(C)o2)cc1	u	-5%	22%	4%	x	u	-22%
CNC(=O)CSc1nnc(-c2ccco2)n1-c1ccc(C)cc1	-5%	3%	5%	4%	11%[10 µM]	7%	15%
CC1(C(=O)CSc2ncn[nH]2)CCC(=O)O1 (configuration not stated)	-13%	u	-5%	0%	-37%	-6%	4%
Cc1ccc(N2C(=O)c3sc4nnc(C)c(=O)n4c3C2=O)cc1	1%	18µM*	21%	6%	-9%	2%	-1%
NC(=O)CN1CCOCCOCCN(CC(N)=O)CCOCC1	-1%	-11%	17%	5%	-3%	-5%	26%
C=CCc1cc(Cl)ccc1OCCN1CC(C)OC(C)C1 (configuration not stated)	-11%	u	-7%	1%	-26%	-15%	9%[9.22 µM]

2 entries drawn at random from the list so far, as already listed:
smiles	Tau ThT inhib	ALDH1A1 block	SMN2 splice enh	Tau fibril FP	HTT cytoprotect	Tau fluor cs	HTT aggregate
NC(=O)CN1CCOCCOCCN(CC(N)=O)CCOCC1	-1%	-11%	17%	5%	-3%	-5%	26%
CC(C)C(=O)Nc1ccc(-c2ccc3nncn3n2)cc1	u	1%	11%	9%	-65%[inhibitor]	-9%	-2%

Continuation:
smiles	Tau ThT inhib	ALDH1A1 block	SMN2 splice enh	Tau fibril FP	HTT cytoprotect	Tau fluor cs	HTT aggregate
CC(=O)Nc1ccc(S(=O)(=O)N2CCN(CC(=O)NC3CCCC3)CC2)cc1	9%	u	x	4%	-2%	10%	6%
Cc1cc(C)nc(NNC2=CC(=O)CC(C)(C)C2)n1	u	25µM*	9%	-7%	-24%	-1%	-13%
O=C(CCN1C(=O)C2(OCCO2)c2ccccc21)c1ccccc1	-7%	-1%	-7%	-3%	-19%	-4%	10%
C=CCNCCOc1ccc(C(C)(C)c2ccccc2)cc1	8%	u	3%	0%	-5%[10 µM]	9%	7%
CCOc1ccc(CN2CCNC(=O)C2CC(=O)NCCC2=CCCCC2)cc1 (configuration not stated)	-13%	u	12%	-2%	-6%[10 µM]	-4%	-6%[9.22 µM]
Cc1cc(C)c2ccc(NN)nc2c1O	u	u	12%	-7%	-42%[inhibitor]	u	-26%
CCN(CC)CCCNCC(=O)Nc1cc(C)on1	-3%	u	4%	-4%	-18%	2%	9%
O=C1CCCC(=O)C1=C1SCCCS1	-7%	u	5%	1%	34%[10 µM]	0%	28%
CC1CN=C(N(Cc2ccccc2)C(=O)Nc2ccccc2)S1 (configuration not stated)	-11%	15%	25%	4%	-9%	-10%	-2%
CCOC(=O)C1CCN(C(=O)/C=C/c2ccc(OC)cc2)CC1	-8%	-3%	6.3µM*	2%	-29%	-5%	-6%
CCCOc1ncnc2c1[nH]c1ccccc12	u	u	-60%[inhibitor]	-3%	-37%	-20%	u
CSc1nc(-c2ccco2)nn1C(=O)c1ccccc1Cl	-12%	x	x	u	5%[10 µM]	7%	-8%[9.22 µM]
Cn1nnc2cc(C(=O)NC3CCCCC3)ccc21	-2%	4%	15%	-3%	-4%	6%	-13%
CC(C)CC(COCc1ccc(Cl)cc1)N1CCN(C(=O)c2ccc(Cl)cc2Cl)CCC1=O (configuration not stated)	1%	-10%	-68%[inhibitor]	-4%	x	-7%	-10%
COc1ccc(CCN2C(=O)c3[nH]nc(-c4ccccc4O)c3C2c2cccc(O)c2)cc1OC (configuration not stated)	-15%	-3%	9%	-6%	-1%[0.074 µM]	u	29%
CCOC(=O)C1=C(C)Nc2nnnn2C1c1cccnc1 (configuration not stated)	2%	6%	-3%	6%	-5%	-3%	-15%
C/C(=N\Nc1nc(N)cc(Cl)n1)c1ccc(Cl)c(Cl)c1	u	u	-15%	-4%	-12%	-15%	-10%
c1ccc(CSc2ncn(-c3ccccc3)n2)cc1	-16%	2%	14µM*	7%	-22%	-15%	-7%
c1cc(-c2nnc(-c3ccncc3)o2)ccn1	0%	7%	5%	1%	-5%	0%	-28%
Cc1ccc(-c2nc(CN(C)C3CCOC3)c(C)o2)s1 (configuration not stated)	-7%	-5%	x	3%	25%[10 µM]	-6%	21%[9.22 µM]
S=c1[nH]nc(-c2ccccc2Cl)n1Cc1ccccc1	-6%	u	-4%	3%	-19%	-6%	8%
COc1ccc2cc3cc(C(=O)NCCCN4CCc5ccccc5C4)sc3nc2c1	0%	u	16µM*	-6%	10%[10 µM]	-18%	u
CC(=O)N1N=C2c3ccccc3CCC2C1c1cccs1 (configuration not stated)	-15%	x	x	10%	40%[10 µM]	-14%	8%[9.22 µM]
COc1ccc(S(=O)(=O)N2CCOCC2)cc1NC(=O)CN1CCCC1	2%	u	4%	3%	x	3%	15%
CCOC(=O)N1CCN(S(=O)(=O)c2ccc(C(=O)NNc3nc4c(C)cccc4s3)cc2)CC1	20µM*	-13%	-93%[inhibitor]	u	x	u	u
COc1cccc(C2CCCN2Cc2nc(-c3sccc3C)oc2C)c1 (configuration not stated)	-16%	u	x	-3%	22%[10 µM]	-13%	4%[9.22 µM]
Cc1cc(Cl)cc(Cl)c1OCCOCCN(C)C	-6%	-9%	-6%	1%	3%[10 µM]	1%	5%
CC(C)(C)C1=C(C#N)C(c2ccncc2)C(C#N)=C(N)O1 (configuration not stated)	u	-10%	18%	-18%	x	-13%	-5%
COCCOC(=O)c1c(C)oc2ccc(OCc3cc(C(=O)OC)oc3C)cc12	u	-6%	u	10%	7%	-21%	-10%
CCCCNC(C(=O)Nc1ccc([N+](=O)[O-])cc1Br)c1ccccc1 (configuration not stated)	-5%	u	3%	5%	x	2%	1%
COc1ccccc1CN(C)C(=O)C1(c2ccc(Cl)cc2)CC1	-9%	-5%	-3%	4%	27%[10 µM]	-8%	-5%
COc1ccc(C2CC2/C(=N/OC(=O)c2cccs2)c2ccccc2)cc1 (configuration not stated)	-23%	-2%	u	-5%	3%	-20%	-7%
CCOC(=O)CCC(=O)Nc1ccc(S(=O)(=O)N2CCC(C)CC2)cc1	6%	-5%	8%	-15%	-10%[10 µM]	-13%	-30%
CCN(CC)CCNCC(=O)Nc1ccc(Oc2ccccc2)cc1	-4%	x	x	0%	9%[10 µM]	2%	7%[9.22 µM]
COc1ccc2c(c1)-c1nc(/N=C/c3ccc(O)cc3)sc1CC2	28µM*	4.5µM*	-2%	u	-37%[10 µM]	u	-8%
CC1=C(C(N)=O)C(c2cccc(OCc3ccccc3)c2)n2nnnc2N1 (configuration not stated)	-1%	4%	-5%	5%	-2%	3%	-12%
CC(C(=O)N1CCOCC1)N1C(=O)c2ccccc2C1=O (configuration not stated)	1%	6%	21%	2%	6%	-3%	-4%
O=C(COc1ccccc1)NNc1nc2c(F)cccc2s1	-7%	-8%	13%	-6%	30%	-5%	12%
O=C(CCc1ccccc1)Nc1nnc(-c2ccc3c(c2)CCCC3)o1	-13%	5%	-4%	6%	-25%	-5%	-21%
CC(=O)C1=C(O)C(=O)N(CCC(=O)O)C1c1cccc(F)c1 (configuration not stated)	-5%	-9%	20%	5%	14%[10 µM]	-6%	u
CC1CCCC(C)N1S(=O)(=O)c1ccc(NC(=O)CCn2cnc3ccccc3c2=O)cc1 (configuration not stated)	-8%	-2%	-3%	-5%	-11%	-19%	u
O=S(=O)(c1ccc(Cl)cc1)N(CCCN1CCOCC1)Cc1cccs1	-11%	13µM*	-7%	-6%	-35%	-12%	-5%
CCn1cnc2cc(NCc3ccncc3)ccc21	-15%	u	x	-5%	-5%	-4%	-10%
CCn1cc(C2Nc3ccccc3C(=O)N2O)c(C)n1 (configuration not stated)	-19%	-11%	u	-4%	17%[10 µM]	-12%	-2%
CCOC(=O)c1nc2nc(-c3cccs3)cc(C(F)(F)F)n2n1	-3%	u	15%	-1%	u	2%	1%
COC(=O)CNC(c1ccccc1)c1cc(Br)ccc1NC(=O)CNC(=O)OCc1ccccc1 (configuration not stated)	-15%	u	-30%[inhibitor]	4%	1%[1.9 µM]	-15%	u
CC(=O)Nc1c(O)nc(SCC(=O)Nc2sc3c(c2C#N)CCCCCC3)[nH]c1=O	u	u	6%	3%	8%	-8%	11%
COC(=O)C1=NN(c2cccc3ccccc23)C2C(=O)N(c3ccccc3OC)C(=O)C12 (configuration not stated)	u	x	x	-1%	u	-22%	2%[9.22 µM]
COc1ccc(NC(=S)Nc2cc(S(=O)(=O)N3CCCCC3)ccc2OC)cc1	2%	u	8%	0%	8%[10 µM]	-28%	14%

Compound activity from PubChem BioAssay.
